Screening results deposited in PubChem by Broad Institute.
A1 inh = A1 inhibition; caspase activation, % (no concentration beside the values); 0.51% of 21,000 active; MEF A1-2A-BIM cells, caspase-Glo luminescence, 3 h; percent of clofoctol signal, DMSO as zero; AID 2241;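 active = most replicate scores above 10, or exactly half above 10 with mean activity above 10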;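 also: effector caspase 3 and 7 activity cleaving a DEVD luciferin substrate; 50 nL library stock added to about 30 µL; numbers are from one replicate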
BJeLR viability = compounds reducing viability of BJeLR cells; 0.64% of 30,000 active; BJeLR fibroblasts viability, CellTiterGlo ATP luminescence, 48 h; HRASV12, hTERT and SV40 LT/ST transformed; viability loss activity score, % (no concentration beside the values); in the data active = viability loss activity score above about 50%; about a fifth of its hits are not listed in these tables;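 also: higher score means fewer live cells and less ATP luminescence; stock transfer was 50 or 100 nL into about 30 µL; 0% = vehicle wells and 100% = a reference killing control; one replicate is shown; the record names a cut of 85%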
* = called active by the depositor. The list is partial; count on the stated rates, not on these rows.

> CCOC(=O)C1C2c3ccccc3C(c3ccccc32)C1C(=O)OCC (stereo not drawn)
  A1 inh: 0.7	BJeLR viability: 0.7

> Clc1ccc(C2CC3CCC2N3)cn1 (stereo not drawn)
  A1 inh: 1.0	BJeLR viability: -3.2

> CO[C@H]1[C@H](O)[C@@H](O[C@H]2CC[C@]3(C=O)C4CC[C@]5(C)[C@@H](C6=CC(=O)OC6)CC[C@]5(O)C4CC[C@@H]3C2)O[C@@H](C)[C@@H]1O (stereo partly drawn)
  A1 inh: 0.2	BJeLR viability: 133*

> NCC(CS(=O)(=O)O)c1ccc(Cl)cc1 (stereo not drawn)
  A1 inh: -0.7	BJeLR viability: -3.6

> CO[C@H]1[C@H](O)[C@H](O[C@H]2CC[C@]3(C)C4CC[C@]5(C)[C@H](C6=CC(=O)OC6)CC[C@]5(O)C4CC[C@@H]3C2)O[C@@H](C)[C@@H]1O[C@@H]1O[C@H](CO[C@@H]2O[C@H](CO)[C@@H](O)[C@H](O)[C@H]2O)[C@@H](O)[C@H](O)[C@H]1O (stereo partly drawn)
  A1 inh: -0.6	BJeLR viability: 100*

> COc1cc2c(cc1O)C1Cc3ccc(OC)c(O)c3CN1CC2 (stereo not drawn)
  A1 inh: -0.2	BJeLR viability: 4.6

> NC1=C(C(=O)OCc2ccccc2)C2(C(=O)Nc3ccc(Br)cc32)C2=C(O1)C(=O)CCC2 (stereo not drawn)
  A1 inh: 0.2	BJeLR viability: -3.3

One compound at a time, as listed above.
CO[C@H]1[C@H](O)[C@H](O[C@H]2CC[C@]3(C)C4CC[C@]5(C)[C@H](C6=CC(=O)OC6)CC[C@]5(O)C4CC[C@@H]3C2)O[C@@H](C)[C@@H]1O[C@@H]1O[C@H](CO[C@@H]2O[C@H](CO)[C@@H](O)[C@H](O)[C@H]2O)[C@@H](O)[C@H](O)[C@H]1O (stereo partly drawn) in the list: A1 inh = -0.6; BJeLR viability = 100*
CO[C@H]1[C@H](O)[C@@H](O[C@H]2CC[C@]3(C=O)C4CC[C@]5(C)[C@@H](C6=CC(=O)OC6)CC[C@]5(O)C4CC[C@@H]3C2)O[C@@H](C)[C@@H]1O (stereo partly drawn) in the list: A1 inh = 0.2; BJeLR viability = 133*
